Compound activity (PubChem)
ClpP mod: qHTS Assay for Activators of ClpP; purified B. subtilis ClpP, FRET peptide cleavage, 20 min; Potency, µM (highest dose often 57.5 µM), without a hit: at the highest dose activity change, negative = active; hit rate 1.9% among 340,000; AID 651965, 2013; active = well fitted falling curve with a large enough effect; inconclusive = small, poorly fitted or top-dose-only effect; inactive = no such curve, though single readings can be large or run the other way; further: potency means the concentration at half of the fitted maximal effect; the source files actives as falling curves though it sought activators and does not explain the sign; nearly all actives have a fitted effect of over 65% in size; many hits overshoot -100%
Target sequence (P80244 whole entry, looked up): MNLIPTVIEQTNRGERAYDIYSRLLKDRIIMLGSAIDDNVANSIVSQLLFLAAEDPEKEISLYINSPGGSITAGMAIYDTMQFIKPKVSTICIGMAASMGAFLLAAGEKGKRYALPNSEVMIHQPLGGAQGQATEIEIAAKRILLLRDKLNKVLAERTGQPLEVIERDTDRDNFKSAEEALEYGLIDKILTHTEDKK
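FRET quenching reversal measured ClpP activation: 10 microg/mL B. subtilis ClpP at pH 8 with the FRET-FV decapeptide, read at 430 nm after 320 nm excitation. The 20-min minus 0-min signal was scaled between DMSO/no-enzyme wells and ADEP (5.8 microM final).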
gsp antag: antagonizes gsp, the McCune-Albright syndrome mutation. gsp-mutant cells, cAMP HTRF, 30 min; control for the full effect not named in the record. Potency, µM (titrated, usually from 76.9 µM), for inactives: at the top dose activity change, negative = inhibition, hits mostly inhibitors. hit rate 0.4% among 340,000; active = falling curve of any shape with a large fitted effect; inconclusive = falling curve, mostly with a smaller effect; inactive = flat or rising curve; cell line not stated here;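 further: intracellular cAMP measured with PDE inhibitor Ro 20-1724 present during compound exposure; potency means the concentration at half of the fitted maximal effect; on the % scale 0 is the no-effect control and ±100 the full control effect; nearly all actives have a fitted effect of over 65% in size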
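Cells in G418 medium, seeded 16-24 h, 37C; buffer exchange to DPBS + 1 mM CaCl2, 0.5 mM MgCl2, 0.05% BSA; cpds in DMSO + […] (300 uM stock), 30 min 37C; HTRF cAMP detection.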
CtBP-E1A blk: CtBP/E1A binding inhibition; AlphaScreen GST-E1A/His-CtBP binding, 1536-well; active compounds read low; control for the full effect not named in the record; activity change, % (test concentration not listed); hit rate 0.49% among 340,000; AID 651724; in the data active means activity change below about -65%; inconclusive means about -30% to -65%; inactive means above about -30%; further: on the % scale 0 is the no-effect control and ±100 the full control effect
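Homogeneous bead-based format: GST-tagged E1A captured on glutathione donor beads, His-tagged CtBP on nickel acceptor beads; compounds precede bead addition by 2 h at 37 °C.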
gsp agonist: agonists of gsp mutant (McCune-Albright syndrome). gsp mutant cells, cAMP HTRF, 30 min; control for the full effect not named in the record. Potency, µM (highest dose often 76.9 µM), inactives show at the highest dose activation (cAMP increase), hits mostly activators. hit rate 0.13% among 340,000; active = well fitted activation curve with a large enough effect; inconclusive = small, poorly fitted or top-dose-only effect, or another doubt; inactive = no such curve, though single readings can be large or run the other way; cell line not stated here;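 further: phosphodiesterase inhibitor Ro 20-1724 added with compounds to block cAMP breakdown; potency means the concentration at half of the fitted maximal effect; nearly all actives have a fitted effect of over 60% in size; about a fifth of the inactives were tested at one dose only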
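Cells in DMEM/10% FBS with G418 were pretreated with compounds in DMSO plus […] (300 uM stock) for 30 min at 37C. cAMP was measured by HTRF (cAMP-d2 plus anti-cAMP antibody-K) after 30 min at room temperature.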
Sfp inh: blocks B. subtilis Sfp PPTase activity. Biochemical Sfp PPTase activity, qHTS. Potency, µM, without a hit: max response, negative = inhibition, hits mostly inhibitors. hit rate 3.5% among 310,000; active means well fitted inhibition curve with a large enough effect; inconclusive means small, poorly fitted or top-dose-only effect, or another doubt; inactive means no such curve, though single readings can be large or run the other way;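 further: the enzyme is Sfp with the accession as filed and its product quenches rhodamine fluorescence; potency means the concentration at half of the fitted maximal effect; 0% = enzyme reaction without inhibitor and -100% = no enzyme wells; top concentration of the series not given in the record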
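Reaction rates are the 30-min fluorescence difference (ex 525, em 598 nm) in wells containing 15 nM Sfp, 5 uM rhodamine-CoA and 12.5 uM BHQ-2-YbbR at pH 7.6 with 10 mM MgCl2.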
Menin-MLL FL inh: displaces fluorescein MLL peptide from human menin; FP activity change, % at 61.4 µM; 290,000 tested, under 10 active; Fluorescence polarization, fluorescein-MLL peptide displacement from menin; inconclusive = falling polarisation curve, or a change in total fluorescence; inactive = total fluorescence flat and polarisation flat or rising; no compound was filed as active; the % refers to the polarisation; negative = inhibition;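 further: % of control where 0% means no effect; inhibitors lower the polarisation; unlabelled MLL peptide was the positive control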
TRPV1 potentiator: potentiators of human vanilloid receptor 1 (TRPV1). Q8NER1. TRPV1-expressing cells, Fluo-8 calcium influx, capsaicin EC20 potentiation; host cell line not named in the record; control for the full effect not named in the record. potentiation, % at 8.33 µM. hit rate 0.02% among 320,000. AID 540277; active means potentiation above 80%; inconclusive means 30% to 80%; inactive means below 30%; further: 0% is about no effect
Target sequence (Q8NER1 whole entry, looked up): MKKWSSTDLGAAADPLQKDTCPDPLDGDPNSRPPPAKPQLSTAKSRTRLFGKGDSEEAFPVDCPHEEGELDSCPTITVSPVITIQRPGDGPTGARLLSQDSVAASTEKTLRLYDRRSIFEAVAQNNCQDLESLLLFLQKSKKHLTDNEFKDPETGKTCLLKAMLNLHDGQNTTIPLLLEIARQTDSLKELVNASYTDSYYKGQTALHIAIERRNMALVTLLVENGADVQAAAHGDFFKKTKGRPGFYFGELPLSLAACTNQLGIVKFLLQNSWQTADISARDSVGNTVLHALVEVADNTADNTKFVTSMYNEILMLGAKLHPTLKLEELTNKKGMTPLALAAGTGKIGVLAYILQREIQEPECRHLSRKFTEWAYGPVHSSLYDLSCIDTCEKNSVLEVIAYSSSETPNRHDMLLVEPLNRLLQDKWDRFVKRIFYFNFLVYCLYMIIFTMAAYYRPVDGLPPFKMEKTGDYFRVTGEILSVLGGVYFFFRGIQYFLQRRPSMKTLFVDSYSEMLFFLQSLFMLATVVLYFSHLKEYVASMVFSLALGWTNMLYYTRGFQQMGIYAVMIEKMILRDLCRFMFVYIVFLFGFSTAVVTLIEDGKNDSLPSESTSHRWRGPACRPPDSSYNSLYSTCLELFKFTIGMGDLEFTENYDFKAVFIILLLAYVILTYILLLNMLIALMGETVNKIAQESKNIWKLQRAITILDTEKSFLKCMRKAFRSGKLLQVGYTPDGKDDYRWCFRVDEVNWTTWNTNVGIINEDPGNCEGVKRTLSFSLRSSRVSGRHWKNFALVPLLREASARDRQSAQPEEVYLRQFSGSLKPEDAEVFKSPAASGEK
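Cells expressing TRPV1 were dye-loaded with Fluo-8 and read kinetically: 10 s baseline, 3 min after compound (agonist portion), then 2 min after EC20 capsaicin (allosteric enhancer portion). Calcium-bound dye fluorescence at 480/520 nm.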
An asterisk follows results filed as active; ? = inconclusive; nt = not tested or not shown; & = joins results of further samples; [ ] = remark or other dose.

The opening 3 entries as a preview:
SMILES	ClpP mod	gsp antag	CtBP-E1A blk	gsp agonist	Sfp inh	Menin-MLL FL inh	TRPV1 potentiator
CCn1c(C(O)c2cccc(OC)c2OC)nc2ccccc21 (centres undefined)	0.8%	6%	-8	-15%	28%	2.8	11
O=S1(=O)[C@H]2C[C@@H]3C=C[C@@]2(CN1Cc1cccc(F)c1)O3	-1.8%&-1.0%	13%	0	-15%	11%	-2.2	0
CCOP(=O)(OCC)C(Nc1ccccn1)c1ccc(F)cc1 (centres undefined)	-13%	0%	-16	-31%[inhibitor]	16%	5.2	4

The listing, from the start:
SMILES	ClpP mod	gsp antag	CtBP-E1A blk	gsp agonist	Sfp inh	Menin-MLL FL inh	TRPV1 potentiator
CCn1c(C(O)c2cccc(OC)c2OC)nc2ccccc21 (centres undefined)	0.8%	6%	-8	-15%	28%	2.8	11
O=S1(=O)[C@H]2C[C@@H]3C=C[C@@]2(CN1Cc1cccc(F)c1)O3	-1.8%&-1.0%	13%	0	-15%	11%	-2.2	0
CCOP(=O)(OCC)C(Nc1ccccn1)c1ccc(F)cc1 (centres undefined)	-13%	0%	-16	-31%[inhibitor]	16%	5.2	4
CC(CC(=O)N1CCc2ccccc21)S(=O)(=O)c1ccc2c(c1)NC(=O)CO2 (centres undefined)	-2.1%	4%	-7	?	9%	nt	-4
COc1ccc(C(=O)C[n+]2ccc(-c3nnc4n3CCCCC4)cc2)cc1	nt	-10%	-26	13%	?	0.9	2
O=C(CN1CCC(C(=O)c2ccc3c(c2)OCCO3)CC1)NCc1ccccc1	nt	-18%	-2	19%	19%	3.3	-4
CN(CC(=O)Nc1ccc(Br)cc1)Cc1ccccc1	1.3%	7%	10	-8%	6%	-0.2	2
Cc1ccc(-c2noc(CN(C(=O)c3cccs3)C(C)C)n2)cc1	1.7%	-2%	9	20%	-9%	3.5	-2
O=C(/C=C/c1cccs1)NC(=S)Nc1ccccc1	0.0%	0%	-2	-10%[15.4 µM]	-6%	1.0	-2
COc1ccc(OC)c2sc(NC(=O)c3ccc(S(=O)(=O)N4CCOCC4)cc3)nc12	5.7%	-4%	1	-19%	17%	-0.4	-3
O=S(=O)(c1cc(F)ccc1F)N1CCN(c2ncnc3ccccc23)CC1	-3.5%	-24%	nt	-15%	nt	nt	nt
CN(Cc1nccn1C)C(=O)c1cc(COc2ccc3ncccc3c2)on1	-3.6%	-7%	3	1%	4%	-0.4	3
CC(C(=O)Nc1ccc(S(=O)(=O)N2CCCC2)cc1)N(C)Cc1ccc(F)cc1 (centres undefined)	-0.5%	-2%	0	-13%	nt	nt	-18
Cc1nn(CC(=O)NCCCN2CCC(Cc3ccccc3)CC2)c(=O)c2cc(-c3ccccc3)nn12	-2.4%	11%	nt	3%	13%	nt	3
CC(C)(C)NC(=O)C(c1ccc(F)cc1)N(CCc1ccccc1)C(=O)c1ccn[nH]1 (centres undefined)	nt	-10%	-3	-14%[15.4 µM]	9%	-2.7	0
CC(=O)C1(C)C(=O)N(c2ccc(C)cc2)C(=O)N1c1ccc(C)cc1 (centres undefined)	0.4%	-6%	10	-12%	nt	nt	nt
CN(C)c1cccc(C(=O)Nc2cccc(S(=O)(=O)NC3=NCCC3)c2)c1	0.6%	5%	-12	22%	0%	nt	19
COc1cc(C(=O)O[C@H]2CC(C)=CC[C@@]3(C)CC[C@@](O)(C(C)C)[C@H]23)ccc1O	-3.6%	-9%	nt	?	-5%	-7.7	-12
Cc1cc(NC(=O)COC(=O)c2ccccc2O)no1	12%	7%	-2	16%	nt	nt	nt
Cc1cc(NC(=O)CCN2C(=O)C3C4C=CC(C4)C3C2=O)c2ccccc2n1 (centres undefined)	-2.1%	-8%	1	-28%	18%	3.8	-14
COc1ccc(CC(=O)OCC(=O)Nc2ncc(Cl)c(C)c2Cl)cc1	-5.7%	7%	0	-33%	nt	nt	2
Clc1cc(Cl)c2nc(N3CCCCC3)sc2c1	2.1%	-19%	37	0%	10µM*	-0.9	28
COc1ccc(/C(N)=N/OC(=O)Cc2cccs2)cc1	-2.1%	6%	-7	-5%[15.4 µM]	6%	1.3	-9
CCOC(=O)c1cc2c(c(CCO)n1)[C@@H](CCO)N(S(=O)(=O)C(C)(C)C)C2	-2.5%	4%	6	nt	nt	nt	nt
NNC(=O)[C@H]1C[C@@H]1c1ccccc1	-3.6%	1%	nt	-33%[inhibitor]	8%	4.8	-17
CC1=C(CO)C(=O)OC([C@@H](C)C2CC[C@H]3C4C[C@H]5O[C@]56[C@@H](O)C=CC(=O)[C@]6(C)C4CC[C@]23C)C1 (some centres undefined)	-3.6%	-24%	4	nt	?	4.3	-4
CC1CCN(C(=O)c2ccc(NS(=O)(=O)c3ccc4[nH]c(=O)[nH]c4c3)cc2)CC1	nt	3%	-13	-14%[15.4 µM]	nt	nt	0
Fc1ccc2cnc(-c3ccccc3)c(-c3ccc(C(F)(F)F)cc3)c2c1	-12%	-11%	7	-31%[inhibitor]	nt	nt	-17
CCOC(=O)c1cnc(-n2nc(C)cc2C)nc1N1CC(C)OC(C)C1 (centres undefined)	-0.6%	-8%	-10	12%	nt	nt	nt
O=C(COC(=O)CNC(=O)c1ccccc1F)NC1CC1	nt	-9%	8	-13%[15.4 µM]	nt	nt	nt
O=C(Nc1ccc(Cl)cn1)c1cccc(OCc2ccccc2)c1	-2.9%	9%	28	15%	11%	-3.0	12
COc1cccc(NC(=O)CSc2nnc(-c3cc(C)[nH]n3)n2N)c1	3.0%	6%	nt	?	7%	nt	2
CCOC(=O)N1CCN(C(=O)c2ccc3c(=O)n(CCc4ccccc4)c(=O)[nH]c3c2)CC1	-4.4%	-9%	6	-10%	2%	-1.5	5
Cc1cccc(C2=NN(c3ccc(Br)cc3)[C@@H](C(=O)N3CCOC3=O)[C@@H]2c2ccc(Cl)cc2)c1	5.1%	-2%	29	nt	12%	0.1	nt
CCOC(=O)C1(Cc2ccccc2C(F)(F)F)CCN(C2CCN(C(C)C)CC2)CC1	-2.0%	1%	nt	-1%	1%	-2.5	-5
CN(C(=S)Nc1ccc(Oc2ccccc2)cc1)c1ccc(O)cc1	30%	-10%	-21	6%	7.9µM*	nt	5
CC(c1nnnn1C1CCCCC1)N(Cc1ccccc1)Cc1cccnc1 (centres undefined)	0.9%	-8%	1	-17%	-3%	-4.0	13
COc1cc(C(=O)NCCSc2ccc(F)cc2)cc(OC)c1OC	-4.8%	4%	-7	11%	9%	7.9	5
CCOC(=O)C1=C(C)NC2(O)c3ccccc3C(=O)C12O (centres undefined)	-1.1%	15%	10	-32%	79µM*	0.5	2
Cc1cc([N+](=O)[O-])nn1CC(=O)NCc1cccs1	-3.0%	-2%[15.4 µM]	1	-6%	28%	5.7	-8
CCC(C)(NC(=O)Cc1c[nH]c2ccccc12)C(=O)NC1CCCCC1 (centres undefined)	1.5%	0%	0	6%[15.4 µM]	2%	5.2	27
CCN1CCN(C(=S)NC(=O)c2cc(OC)c(OC)c(OC)c2)CC1	-4.5%	3%	2	10%[15.4 µM]	nt	nt	nt
Cc1ccc(-c2cc(C(=O)N/N=C/C=C/c3ccccc3)n[nH]2)s1	-4.3%	-24%	-16	-17%	-5%	-1.9	6
CC1CC(=O)N(CC(=O)Nc2ccc3c(c2)OCCO3)c2ccccc2S1 (centres undefined)	1.5%	1%	4	14%	9%	5.4	3
COc1cc(OC)c(NC(=O)CC(=O)Nc2cc(Cl)c(OC)cc2OC)cc1Cl	2.7%	9%	nt	17%	-9%	9.0	?
COc1ccccc1N(CC1CO1)S(=O)(=O)c1ccccc1 (centres undefined)	nt	4%	2	0%[15.4 µM]	17%	nt	9
COc1ccc(OC)c(NC(=O)CCCc2ccccc2)c1	0.7%	4%	nt	-28%	7%	-3.7	-1
CCCOC(=O)c1ccc(NC(=O)/C=C/c2cccs2)cc1	-8.4%	-20%	0	-4%	?	2.5	-19
COC(=O)CCC(=O)NC(=S)Nc1sc(C)c(C)c1C(N)=O	0.2%	16%	17	36%	-23%	6.4	1
Cc1cc(C)c2c(C)nn(-c3ccccc3)c2n1	?	-3%	13	15%	12%	1.7	-9
CCOC(=O)c1c(N=CN(C)C)c2cc([N+](=O)[O-])cnc2n1C	nt	-10%	-6	-17%[15.4 µM]	9%	1.3	9
Cc1cc(C)cc(NC(=S)NC(=O)Cc2ccccc2)c1	nt	-4%	-9	2%	nt	nt	nt
O=C(CN1C(=O)NC2(CCCCCC2)C1=O)Nc1ccccc1[N+](=O)[O-]	nt	7%	3	-25%	nt	nt	nt
Cc1cc(/C=C2\SC(=S)NC2=O)c(C)n1-c1ccc(O)cc1	0.6%	32µM*	-20	-2%	45µM*	?	8
O=C1C=C(c2ccccc2)OC2(CCCC2)O1	-0.7%	?	6	-7%	12%	-0.3	3
Cc1noc(C)c1NC(=O)N(C)C[C@@H]1OCc2cnnn2CCCC(=O)N([C@H](C)CO)C[C@@H]1C	0.9%	nt	5	0%	nt	nt	nt
CC1(C)CN=c2s/c(=C\c3ccc(Cl)cc3)c(=O)n2C1	nt	9%	0	-2%[15.4 µM]	-8%	-0.6	-1
C#Cc1cccc(NC(=O)c2ccc3c(c2)C(=O)N(Cc2cccnc2)C3=O)c1	1.6%	40µM*	-4	33%[15.4 µM]	1%	nt	2
CCCc1cc(=O)oc2cc(OCc3nn[nH]n3)ccc12	-16%	-1%	0	0%	11%	3.3	-3
C=CCNC(=O)c1ccc(-c2ccc([N+](=O)[O-])cc2)o1	1.1%	-14%	0	2%[15.4 µM]	25µM*	4.4	8

One compound at a time (already shown). Order of values: ClpP mod | gsp antag | CtBP-E1A blk | gsp agonist | Sfp inh | Menin-MLL FL inh | TRPV1 potentiator
Record of `COC(=O)CCC(=O)NC(=S)Nc1sc(C)c(C)c1C(N)=O` → 0.2% | 16% | 17 | 36% | -23% | 6.4 | 1
Record of `Cc1noc(C)c1NC(=O)N(C)C[C@@H]1OCc2cnnn2CCCC(=O)N([C@H](C)CO)C[C@@H]1C` → 0.9% | nt | 5 | 0% | nt | nt | nt

Rows were taken by chance, and some 5.3% of all compounds hit somewhere here.
